Source: PubChem (National Center for Advancing Translational Sciences (NCATS))
Rango release inh = prevents RanGTP from dissociating the Rango-importin beta complex; O95149+P62826; Potency, µM (series often up to 46.1 µM), inactives show at the top dose activity change, negative = inhibition; 0.071% of 340,000 active; Biochemical FRET Rango-importin beta, RanGTP-induced dissociation; active means falling FRET ratio curve, often poorly fitted, with flat reads before Ran was added; inconclusive means other falling curves, or compound fluorescence or quenching; inactive means flat or rising ratio curve;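 note: potency is the fitted concentration of half-maximal effect; % of control where 0% means no effect; nearly all actives have a fitted effect of over 45% in size; -100% = wells without RanGTP and RCC1; the record marks most hits as doubtful in a second field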
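Compounds sat 5 min at room temperature with 0.1 uM Rango biosensor plus 0.25 uM importin beta, then FRET pre-read. RanGTP-RCC1 (0.6 uM Ran, 2mM GTP, 0.2 uM RCC1) added for 45 min, and the CFP/YFP post-read measured blocked complex dissociation.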
Rango-impB inh = prevents formation of the Rango-importin beta complex; AID 540263; Rango CFP/YFP FRET sensor + importin beta, 45 min; Potency, µM (highest dose often 92.2 µM), for inactives: top-dose inhibition of complex formation; 0.031% of 340,000 active; active = rising FRET ratio curve, often small or poorly fitted; inconclusive = mostly compound fluorescence or quenching in the first reads; inactive = flat curves in all reads;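 note: potency is the fitted concentration of half-maximal effect; 0% = DMSO wells and 100% = buffer wells lacking importin beta; nearly all actives have a fitted effect of over 15% in size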
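FRET biosensor Rango (snurportin 1 IBB between N-terminal EYFP and C-terminal Cerulean), 50 nM in PBS/1 mM DTT/0.02% Tween-20/0.1% BSA, preincubated 5 min RT with compound; 0.125 microM importin beta added, 45 min RT, CFP/YFP FRET ratio read.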
miR-21 reporter = miR-21 reporter, rising signal. 340,000 tested, under 10 active. HeLa miR-21 FLuc reporter, luciferase, 48 h. Potency, µM (series often up to 38.3 µM), inactives show top-dose reporter change, positive = more light; active = well fitted rising curve with a large enough effect; inconclusive = small, poorly fitted or top-dose-only effect; inactive = no such curve, though single readings can be large or run the other way;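 note: % of control where 0% means no effect; miR-21 action dims this reporter so a rising signal means less miR-21 action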
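HeLa cells stably expressing CMV-driven firefly luciferase with a downstream miR-21 binding sequence, endogenously expressing miR-21, were treated with titrations (up to about 40uM final) for 48 hours at 37 degree Celsius. Luciferase luminescence was read after lysis.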
GLA inh pH 4.5 = blocks human alpha-galactosidase A at pH 4.5; AID 1467; purified enzyme, 4-MU-alpha-Gal fluorescence, pH 4.5; activity change, negative = inhibition, % at 105 µM; 230,000 tested, under 10 active; P06280; inconclusive = small, poorly fitted or top-dose-only inhibition, or a rising curve; inactive = flat fitted curve, though single readings scatter; no compound was filed as active;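 note: 0% = full activity with enzyme and -100% = basal without enzyme; dose as in the result columns while the protocol names 77 µM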
Target sequence (P06280 whole entry, looked up): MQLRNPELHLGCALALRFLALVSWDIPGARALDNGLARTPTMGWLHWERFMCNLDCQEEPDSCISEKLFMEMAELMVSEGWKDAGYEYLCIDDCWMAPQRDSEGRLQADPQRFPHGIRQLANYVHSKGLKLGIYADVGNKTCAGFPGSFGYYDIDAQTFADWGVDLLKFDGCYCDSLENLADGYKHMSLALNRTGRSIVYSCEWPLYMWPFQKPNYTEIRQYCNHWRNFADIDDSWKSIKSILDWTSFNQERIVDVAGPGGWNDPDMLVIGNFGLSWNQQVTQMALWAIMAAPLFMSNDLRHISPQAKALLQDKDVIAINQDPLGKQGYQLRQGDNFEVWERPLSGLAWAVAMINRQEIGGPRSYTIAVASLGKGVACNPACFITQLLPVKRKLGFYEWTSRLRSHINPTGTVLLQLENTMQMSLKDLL
Starred values were filed as active, the others as inactive; u = inconclusive; x = no result given; & = joins results of further samples. These rows are one share of the data; count on the stated rates, not on these rows.

structure,GLA inh pH 4.5,Rango release inh,Rango-impB inh,miR-21 reporter
Cc1ccc(S(=O)(=O)Nc2nc3ccccc3nc2Nc2cccc(S(=O)(=O)N3CCCC3)c2)cc1,4,u,u,5%
CC(C)N(Cc1ccccc1)C(=O)CN1C(=O)NC2(CCCc3ccccc32)C1=O (centres undefined),x,19%,0.5%,-1%
COC(=O)CCC(C)N1CCC(Oc2ccc(C(=O)N3CCCC3)cc2)CC1 (centres undefined),x,2%,0.5%,-3%
Cc1cccn2c(=O)nc(SCC(=O)N3CCCC3)nc12,x,-4%,-5.2%,x
C/C(=C/Cc1c(O)cc2oc(C)cc(=O)c2c1O)COC1OC(CO)C(O)C(O)C1O (centres undefined),3,-8%,4.9%,-7%
O=C(NC(=S)Nc1nc(-c2ccc(Cl)cc2)cs1)c1cccs1,-7,6%,-1.0%,-5%
O=C(COC(=O)/C=C/c1ccc(Br)o1)Nc1ccccc1F,0,x,x,0%
O=c1[nH]c(CN2CCCCC2)nc2c1C1(CCCCC1)Cc1ccccc1-2,-23,u,-0.6%,-7%

Following part:
structure,GLA inh pH 4.5,Rango release inh,Rango-impB inh,miR-21 reporter
Cc1cccc(NC(=S)N2CCC(C(=O)c3ccc(F)cc3)CC2)c1,x,14%,5.5%,x
O=C(O)c1ccccc1NCc1ccco1,-8,10%,0.9%,-2%
COc1ccc(CN2CCN(C(=O)c3ccco3)CC2)cc1OCc1ccccc1,3,-2%,4.7%,4%
Clc1ccc(Nc2ccc(-n3ccnc3)nn2)cc1Cl,-3,2%,-0.5%,13%
Cc1cccc(N(C(=O)c2csnn2)C(C(=O)NC2CCCCC2)c2ccncc2)c1 (centres undefined),x,-4%,1.5%,2%
CCN(CC)CC(O)CN1c2ccccc2Sc2ccccc21 (centres undefined),x,0%,0.7%,2%
CSc1ncccc1C(=O)OCC(=O)NCCC1=CCCCC1,x,-9%,-0.6%,x
COc1ccc(CNC(=O)COC(=O)CCCOc2ccc(Cl)cc2Cl)cc1OC,-8,3%,0.3%,27%

(further entries)
structure,GLA inh pH 4.5,Rango release inh,Rango-impB inh,miR-21 reporter
CCCCN(C)CCCNC(=O)c1ccc2c(c1)N(CC)C(=O)c1ccccc1S2=O (centres undefined),x,-5%,-3.8%,-2%
COc1ccccc1NC(=O)/C=C/c1cc([N+](=O)[O-])ccc1OC(F)F,-9,16%,0.6%,-1%
CCOc1cc(C)nc(NCc2ccccc2)n1,1,-8%,-6.6%,8%
COc1cccc(-n2nc(C(=O)NCC3CCCO3)c3ccccc3c2=O)c1 (centres undefined),x,-8%,0.5%,4%
O=C(COC(=O)Cc1c(F)cccc1Cl)NCc1ccc2c(c1)OCO2,x,-11%,-0.5%,x
Cc1nc2ccc(S(=O)(=O)NC(C(=O)NCc3ccc4c(c3)OCO4)C(C)C)cc2s1 (centres undefined),4,5%,1.8%,-2%
COCCNC(=O)c1onc(CSc2ccc(Cl)cc2)c1C(=O)O,16,-4%,-4.4%,-15%
O=C(Nc1ccc(S(=O)(=O)Nc2cnc3ccccc3n2)cc1)c1ccc(Cl)cc1Cl,x,-1%,-1.7%,x

(further entries)
structure,GLA inh pH 4.5,Rango release inh,Rango-impB inh,miR-21 reporter
CN1c2ccccc2N(C)C1c1c(O)ccc2ccccc12,-2,-1%,0.2%,-4%
Cc1cccc(C)c1Nc1nnc(SCc2cn3cccc(C)c3n2)s1,2,16%,-0.4%,-12%
CCCC1(C(=O)OC)NC(c2cccc(F)c2)C2C(=O)N(CC)C(=O)C21 (centres undefined),-6,-1%,1.6%,-2%
NC(N)=Nc1nc(C2COc3ccccc3O2)cs1 (centres undefined),2,-12%,-1.6%,-37%
COCCn1c(SCC(=O)Nc2ccc(NC(=O)c3ccco3)c(OC)c2)nc2ccccc2c1=O,11,-1%,0.0%,-7%
CCC(C)n1c(=O)c(C(=O)Nc2ccccc2S(N)(=O)=O)c(O)c2ccccc21 (centres undefined),0,-4%,-0.8%,2%
Cc1ccc2[nH]c(=O)c(N3CCOCC3)c(-c3ccccc3)c2c1,-4,-12%,-4.5%,1%
COc1ccc(C(=O)N=c2sc3c(C)ccc(OC)c3n2C)cc1OC,u,1%,2.5%,-38%

Next part
structure,GLA inh pH 4.5,Rango release inh,Rango-impB inh,miR-21 reporter
Cn1nc(C(C)(C)C)c([N+](=O)[O-])c1C(=O)Nc1ccc(Br)cc1,-25,-2%,-0.1%,16%
CCc1nc2ccccc2n1CC(O)COc1ccc(NC(C)=O)cc1 (centres undefined),-3,-3%,0.6%,-1%
O=C(C/C=N/OCc1ccc(Cl)cc1)c1cnc(-c2ccccc2)s1,2,-10%,-2.2%,-14%
CC(C)(C)OC(=O)N1CCC(C(=O)N[C@@H](Cc2ccccc2)C(=O)O)(c2ccccc2)CC1,1,-6%,0.4%,-2%
O=C(O)c1ccc(Oc2cccc([N+](=O)[O-])c2)cc1C(=O)O,10,-8%,-2.0%,2%
Cc1ccc(N(C(=O)CNC(=O)c2ccco2)C(C(=O)NC2CCCC2)c2cccnc2)cc1C (centres undefined),4,6%,-0.8%,-2%
CN1CCN(C(=O)CSc2cc(=O)n(C)c3ccccc23)CC1,6,-19%,2.6%,9%
CC(/C=C/c1ccco1)=N/NC(=O)CNc1ccccc1C,1,8%,-0.6%,-6%

The results go on.
structure,GLA inh pH 4.5,Rango release inh,Rango-impB inh,miR-21 reporter
CCCOc1ccc(-c2c(=O)n(OCc3ccc([N+](=O)[O-])cc3)c3ccccc3[n+]2[O-])cc1,2,22%,u,-6%
CC(CN1CCOCC1)OC(=O)c1cccc(Br)c1 (centres undefined),3,-14%,2.3%,5%
COC(=O)C1=CN(CC2CCCO2)C=C(C(=O)OC)C1c1cc(OC)c(OC)c(OC)c1 (centres undefined),u,u,u,0%
O=S(=O)(NCCC1=CCCCC1)c1cccc(Br)c1,x,4%,-3.6%,x
OCC1OC(Oc2c[nH]c3ccccc23)C(O)C(O)C1O (centres undefined),x,-8%,-4.2%,x
Cc1cc(C(=O)CSc2nc3ccccc3[nH]2)c(C)n1CC1CCCO1 (centres undefined),0,-2%,1.7%,u
CCCCc1cc2c(c(NC(=O)CC)n1)c(=O)oc1ccccc12,0,-12%,u,-1%
O=C(Nc1ccn(Cc2ccc(Cl)cc2)n1)c1ccccc1,-4,0%,-5.5%,-32%

A section from further up, as a working copy:
structure,GLA inh pH 4.5,Rango release inh,Rango-impB inh,miR-21 reporter
CCCOc1ccc(-c2c(=O)n(OCc3ccc([N+](=O)[O-])cc3)c3ccccc3[n+]2[O-])cc1,2,22%,u,-6%
CC(CN1CCOCC1)OC(=O)c1cccc(Br)c1 (centres undefined),3,-14%,2.3%,5%
COC(=O)C1=CN(CC2CCCO2)C=C(C(=O)OC)C1c1cc(OC)c(OC)c(OC)c1 (centres undefined),u,u,u,0%
O=S(=O)(NCCC1=CCCCC1)c1cccc(Br)c1,x,4%,-3.6%,x
OCC1OC(Oc2c[nH]c3ccccc23)C(O)C(O)C1O (centres undefined),x,-8%,-4.2%,x

Next section
structure,GLA inh pH 4.5,Rango release inh,Rango-impB inh,miR-21 reporter
O=Cc1cccn1-c1sc2c(c1C(=O)O)CCCC2,-2,34%,-2.9%,0%
CC(C)(C)c1nnc(NC(=O)c2cccs2)s1,-5,17%,0.0%,-49%
O=C(CCNc1cccc(F)c1)c1cc2ccccc2o1,3,18%,-2.7%,-6%
Cc1cccc(CC2CC(=O)N(c3ccccc3)C2=O)c1 (centres undefined),2,2%,-2.4%,1%
CN(C)S(=O)(=O)N1CCC(c2ccc(F)cc2)C(COc2ccc3c(c2)OCO3)C1 (centres undefined),-7,6%,3.1%,9%
O=C(CSC(=S)N1CCCC1)N1CCN(S(=O)(=O)c2cccc(F)c2)CC1,x,-10%,-0.9%,x
Cc1cccc(C)c1NC(=O)CN(C)C(=O)c1ccccc1SCC(=O)N1CCCC1,x,6%,-0.2%,x
COc1cccc(-c2cc(=O)c3cc(NC(=O)c4ccccc4)ccc3[nH]2)c1,-12&-6,-1%,3.6%,15%

Later entries
structure,GLA inh pH 4.5,Rango release inh,Rango-impB inh,miR-21 reporter
COc1ccc(C(=O)NNC(=O)CSc2nnnn2C)cc1,-2,10%,-0.7%,0%
CC1S/C(=N/N=C2CCC(C(C)(C)C)CC2)NC1=O (centres undefined),-8,-15%,5.7%,-35%
Clc1ccc2c(c1)C1OCCC1C(c1ccco1)N2 (centres undefined),-4,-12%,u,-62%
CC(C)CNC(=O)NC(=O)COC(=O)COc1ccc(Cl)cc1Cl,-6,3%,-0.5%,-2%
O=C(NCc1cccs1)C(NS(=O)(=O)c1cccc2nsnc12)c1ccccc1 (centres undefined),-7,7%,0.4%,-2%
CCCCN(C(=O)CSc1nnc(-c2ccccc2)n1C)c1c(N)n(Cc2ccccc2)c(=O)[nH]c1=O,2,-13%,-0.4%,-3%
COc1ccc(OC)c(NC(=O)CCNS(=O)(=O)c2cccs2)c1,-5,0%,-1.8%,2%
CC(C)(C)n1ncc2c(=O)n(Cc3ccc(Cl)cc3)cnc21,-14,7%,1.2%,10%

New compounds follow
structure,GLA inh pH 4.5,Rango release inh,Rango-impB inh,miR-21 reporter
O=[N+]([O-])c1cccc(CNC2CCCCCC2)c1,8,0%,-0.6%,0%
CC(N=C(NC#N)Nc1ccncc1)C(C)(C)C (centres undefined),0&5&2,17%&-1%,0.2%&-1.9%,3%
COc1ccc2sc3ccccc3c(=O)c2c1OC,5,u,u,-59%
Cc1cccc(C)c1OCCCCc1c(C)n[nH]c1C,-2,2%,-1.2%,11%
Cc1cccc(C(=O)N[C@H](C(=O)Nc2cc(S(=O)(=O)N3CCCCC3)ccc2C)C(C)C)c1,-4,4%,1.2%,-4%
CC(=O)NC1=NN(c2ccccc2)C(=O)C1,3,-25%,-3.4%,-1%
O=C(O)/C=C\C(=O)Nc1ccc(Oc2ccccc2)cc1,9,-9%,0.1%,-1%
CCN1CCc2c(sc(NC(=O)c3ccc(S(=O)(=O)N(C)c4ccccc4)cc3)c2C(=O)NC)C1,x,u,u,9%

Continuation.
structure,GLA inh pH 4.5,Rango release inh,Rango-impB inh,miR-21 reporter
CCc1c(C)nc2c(C#N)c[nH]n2c1=O,-2,-1%,-5.6%,-5%
Cc1cccc2c(C(=O)O)c3c(nc12)CCCCC3,3,-13%,0.9%,-2%
Cc1nnc(NC(=O)CCCOc2ccccc2)s1,5,-8%,1.2%,-1%
CCN(CC)C(=O)c1ccccc1NS(=O)(=O)c1ccc(C)cc1,3,1%,9.3%,-1%
CCn1c(C)nc2cc(NC(=O)Nc3cccc(C(C)=O)c3)ccc21,x,-9%,-0.7%,2%
COc1ccc(-n2c(COc3cccc4ccccc34)nnc2SC(C)C(=O)O)cc1 (centres undefined),1,-10%,5.5%,1%
NS(=O)(=O)c1ccc(NC(=O)/C=C/c2cccc(Cl)c2)cc1,0,0%,-0.3%,-25%
COCCNC(=O)CCC1CCN(Cc2cccc(Oc3ccccc3)c2)CC1,x,24%,-0.6%,-1%

(more compounds)
structure,GLA inh pH 4.5,Rango release inh,Rango-impB inh,miR-21 reporter
Cc1ccc(-c2nn3c(C)nnc3s2)cc1NC(=O)c1cccs1,0,-16%,0.7%,0%
COc1ccc(CCNC(=O)C2CCN(C(=O)c3ccc(F)cc3)CC2)cc1OC,x,-9%,0.0%,-3%
CC(C)(CC(=O)O)CC(=O)NNc1ncccc1C#N,-2,-5%,0.3%,4%
CC1=C(C(=O)Nc2ccccc2)C(c2ccco2)C(C#N)=C(SCC(=O)Nc2cccc(C)c2C)N1 (centres undefined),-3,1%,0.4%,-5%
CCN(CC)S(=O)(=O)c1cc(NC(=O)c2ccccc2OCc2c(C)noc2C)ccc1C,x,-3%,0.0%,x
Cc1cc(NC(=O)CSc2nnc(-c3ccco3)n2N)no1,x,-18%,-2.0%,x
CC(C)(C)CC(=O)NC(=S)NCc1ccccc1,3,1%,2.8%,-4%
O=C(NCCc1csc(-c2ccccc2)n1)c1c(F)cccc1F,-1,-24%,u,4%
